# High-throughput results from PubChem.
# gsp ag: gsp mutant agonism. gsp mutant cells, cAMP HTRF, 30 min; control for the full effect not named in the record. Potency, µM (titrated, usually from 76.9 µM), without a hit: at the top dose activation (cAMP increase), most hits filed as activators. 0.13% of 340,000 active; active = well fitted activation curve with a large enough effect; inconclusive = small, poorly fitted or top-dose-only effect, or another doubt; inactive = no such curve, though single readings can be large or run the other way; cell line not stated here;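 also: phosphodiesterase inhibitor Ro 20-1724 added with compounds to block cAMP breakdown; potency is read from the fitted curve at half-maximal effect; nearly all actives have a fitted effect of over 60% in size; about a fifth of the inactives were tested at one dose only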
#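 Cells in DMEM/10% FBS with G418 were pretreated with compounds in DMSO plus […] (300 uM stock) for 30 min at 37C. cAMP was measured by HTRF (cAMP-d2 plus anti-cAMP antibody-K) after 30 min at room temperature.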
# D2 agonist: human D2 receptor agonism in beta-arrestin assay; DiscoveRx PathHunter D2 beta-arrestin, luminescence, 90 min; 100% = 57 uM dopamine signal; AID 624465; 0.084% of 360,000 active; P14416; activation, % (no concentration beside the values); in the data active = activation above about 40%; inconclusive = about 15% to 40%; inactive = below about 15%; also: compound concentration not given in the record; the text of the record calls up to 30% inactive
# Target sequence (P14416 whole entry, looked up): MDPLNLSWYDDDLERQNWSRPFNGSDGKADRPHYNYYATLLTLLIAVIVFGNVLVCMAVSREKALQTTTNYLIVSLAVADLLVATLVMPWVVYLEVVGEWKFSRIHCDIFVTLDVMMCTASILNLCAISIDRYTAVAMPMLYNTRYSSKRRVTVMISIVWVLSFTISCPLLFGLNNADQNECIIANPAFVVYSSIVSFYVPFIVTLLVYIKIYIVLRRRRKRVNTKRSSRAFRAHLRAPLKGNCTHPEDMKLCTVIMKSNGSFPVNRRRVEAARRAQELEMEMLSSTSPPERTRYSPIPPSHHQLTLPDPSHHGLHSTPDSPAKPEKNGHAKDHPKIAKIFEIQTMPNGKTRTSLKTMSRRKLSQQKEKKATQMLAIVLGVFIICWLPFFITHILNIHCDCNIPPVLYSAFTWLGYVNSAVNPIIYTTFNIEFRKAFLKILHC
#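 DiscoveRx PathHunter D2 beta-arrestin cells (2,100/well) attached overnight, then compound-stimulated 90 min at 37 C in HBSS/10 mM HEPES/0.1% Tween-20 buffer; beta-galactosidase complementation read by luminescence after 1 h at ambient temperature. Dopamine 57 uM final (EC100) as control.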
# Menin-MLL FL inh: displaces fluorescein MLL peptide from human menin. Fluorescence polarization, fluorescein-MLL peptide displacement from menin. FP activity change, % at 61.4 µM. 290,000 tested, under 10 active; inconclusive = falling polarisation curve, or a change in total fluorescence; inactive = total fluorescence flat and polarisation flat or rising; no compound was filed as active; the % refers to the polarisation; negative = inhibition;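 also: % of control where 0% means no effect; inhibitors lower the polarisation; unlabelled MLL peptide was the positive control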
# PINK1 expr mod: PINK1 expression modulation; PINK1 immunofluorescence, high-content cytometry, 24 h; AID 624263; 0.2% of 410,000 active; Potency, µM (top dose mostly 76.6 µM), inactives show top-dose activation (PINK1 increase), hits mostly activators; active = well fitted activation curve with a large enough effect; inconclusive = small, poorly fitted or top-dose-only effect; inactive = flat fitted curve, though single readings scatter; cell line not stated here;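 also: potency is read from the fitted curve at half-maximal effect; % of control where 0% means no effect; nearly all actives have a fitted effect of over 65% in size; a mitochondrial uncoupler was the plate control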
#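 PINK1 protein level read as immunofluorescence by microplate cytometer in a fixed, stained stable cell line after 24 h exposure to five compound concentrations, with CCCP as control.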
# gsp antagonist: gsp mutant antagonism; Potency, µM (doses to about 76.9 µM), inactives show at the highest dose activity change, negative = inhibition, most hits filed as inhibitors; gsp-mutant cells, cAMP HTRF, 30 min; control for the full effect not named in the record; 0.4% of 340,000 active; active = falling curve of any shape with a large fitted effect; inconclusive = falling curve, mostly with a smaller effect; inactive = flat or rising curve; cell line not stated here;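 also: intracellular cAMP measured with PDE inhibitor Ro 20-1724 present during compound exposure; potency is read from the fitted curve at half-maximal effect; % is scaled to controls: 0 for no effect and ±100 for the full control effect; nearly all actives have a fitted effect of over 65% in size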
#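 HTRF cAMP measurement after 30 min RT detection following 30 min, 37C compound treatment alongside […] (added as 300 uM solution) in G418-selected cells seeded at 2000/well and grown 16–24 h.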
# ClpP mod: qHTS Assay for Activators of ClpP. ATP-dependent Clp protease proteolytic subunit (Bacillus subtilis (strain 168)), P80244. AID 651965, 2013. 1.9% of 340,000 active. Potency, µM (top dose mostly 57.5 µM), for inactives: at the highest dose activity change, negative = active. purified B. subtilis ClpP, FRET peptide cleavage, 20 min; active = well fitted falling curve with a large enough effect; inconclusive = small, poorly fitted or top-dose-only effect; inactive = no such curve, though single readings can be large or run the other way; also: potency is read from the fitted curve at half-maximal effect; the source files actives as falling curves though it sought activators and does not explain the sign; nearly all actives have a fitted effect of over 65% in size; many hits overshoot -100%
# Target sequence (P80244 whole entry, looked up): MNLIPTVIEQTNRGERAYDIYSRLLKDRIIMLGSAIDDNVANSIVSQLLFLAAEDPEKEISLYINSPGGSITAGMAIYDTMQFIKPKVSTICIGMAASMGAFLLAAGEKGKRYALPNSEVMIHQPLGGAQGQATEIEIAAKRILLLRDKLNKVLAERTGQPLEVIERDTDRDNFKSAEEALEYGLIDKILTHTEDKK
#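 ClpP 10 microg/mL final, pH 8 Tris/KCl buffer with BSA, glycerol, Tween-20; compound pinned in; FRET-FV substrate; RT 20 min; Ex320/Em430; ΔFRET vs ADEP 5.8 microM, DMSO, no enzyme.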
# Sfp PPTase inh: Sfp phosphopantetheinyl transferase inhibition; 3.5% of 310,000 active; Biochemical Sfp PPTase activity, qHTS; Potency, µM, for the others: max response, negative = inhibition, hits mostly inhibitors; Q9F4F7; AID 1490; active = well fitted inhibition curve with a large enough effect; inconclusive = small, poorly fitted or top-dose-only effect, or another doubt; inactive = no such curve, though single readings can be large or run the other way;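 also: the enzyme is Sfp with the accession as filed and its product quenches rhodamine fluorescence; potency is read from the fitted curve at half-maximal effect; 0% = enzyme reaction without inhibitor and -100% = no enzyme wells; top concentration of the series not given in the record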
#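 Buffer: 50 mM Hepes-Na pH 7.6, 10 mM MgCl2, 0.01% Nonidet P-40, 0.01% BSA. Enzyme 15 nM, pre-exposed to compound 15 min; substrates then added and fluorescence change tracked over 30 min.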
# The depositor's hits bear a star; ? = inconclusive; nt = not tested or not shown; [ ] = another dose, or the depositor's remark.
SMILES,gsp ag,D2 agonist,Menin-MLL FL inh,PINK1 expr mod,gsp antagonist,ClpP mod,Sfp PPTase inh
CCOc1ccc(CCNC(=O)COC(=O)c2ccc(F)c(S(=O)(=O)N3CCOCC3)c2)cc1OCC,-1%,3.8,nt,1.2%,0%,0.7%,nt
O=CN1CCN(S(=O)(=O)c2ccc(Cl)c(C(=O)O)c2)CC1,?,1.1,-2.9,-0.7%,9%,nt,-9%
Cc1nc(C(C)NC(=O)CCc2nnc(CCCc3ccccc3)o2)c(C)s1 (stereo not drawn),-1%[15.4 µM],-3.0,-6.5,-0.4%,-8%,nt,23%
O=C(COC(=O)c1ccc(O)cc1O)Nc1nnc(-c2ccccc2)o1,-14%[15.4 µM],0.6,nt,0.4%,6%,-3.0%,nt
Cc1ccc(F)cc1NCC(=O)Nc1ccc(Br)cc1,-9%,-1.4,10,13%,0%,0.6%,10%
CC12CCC(C(=O)N(CSC(=S)N/N=C\c3ccccc3O)C1=O)C2(C)C (stereo not drawn),-16%,-1.0,?,-0.8%,-10%,-0.6%,38%[activator]
Cc1ccc(C)c(NC(=O)C2C3CCCC2C3c2ccccc2)c1 (stereo not drawn),3%,-3.6,2.9,5.2%,5%,3.1%,-5%
Cc1occc1-c1nnc(SCC(=O)NCC2CCCO2)n1C (stereo not drawn),-25%,1.0,0.1,-1.8%,14%,-3.0%,2%
O=C(Nc1cc(Br)ccc1O)c1cc(-c2ccc3c(c2)OCO3)on1,0%[15.4 µM],-4.1,nt,-0.2%,9%,nt,1%
CC(C)NC(=O)CSc1nnc(CNC(=O)OC(C)(C)C)n1C,-39%[inhibitor][15.4 µM],3.1,1.4,5.8%,16%,nt,9%
COC(=O)C(C)Nc1cccc(Br)c1 (stereo not drawn),-8%,-5.8,4.6,1.0%,8%,-0.4%,-1%
CC(=O)N1CCOc2ccc(S(=O)(=O)N3CCC(C(=O)Nc4ccccc4F)CC3)cc21,-73%[inhibitor],-0.8,2.0,0.9%,-14%,0.5%,3%
CN(C(=O)CSc1nnc(-c2ccc(F)cc2)n1C)C1CCS(=O)(=O)C1 (stereo not drawn),?,-0.5,nt,2.3%,16%,0.6%,nt
CC(=O)N1CCN(c2nc(-c3cccs3)nc3ccccc23)CC1,-10%[15.4 µM],-1.3,4.5,0.1%,-20%,nt,6%
Cc1c(C(=O)N2CCCc3ccccc32)sc2nc(-c3ccccc3)cn12,-2%,-4.8,0.7,1.5%,-4%,0.2%,-17%
Cc1cccc(NCc2ccccc2O)n1,-5%,-3.7,0.3,-0.7%,2%,?,-5%
Cc1nccn1CCc1n[nH]c(=S)n1Cc1ccccc1,12%,1.9,-0.6,-5.0%,-2%,-2.1%,3%
COc1cccc(-c2c(-c3cc(OC)cc(OC)c3)n(C)c3ccc(-c4cnc(OC)nc4)cc23)c1,14%,-4.6,nt,5.9%,-3%,3.5%,nt
COCCNC(=O)C1CCCN(C(=O)c2sc(-c3ccccc3)nc2C)CC1 (stereo not drawn),nt,-1.3,nt,2.0%,nt,-3.4%,nt
O=C(CN1C(=O)NC2(CCCCC2)C1=O)N1CCN(S(=O)(=O)c2cccc([N+](=O)[O-])c2)CC1,-32%[inhibitor],2.7,nt,-1.3%,9%,1.4%,nt
Cc1cccc(NC(=O)NNC(=O)c2ccc(C)c([N+](=O)[O-])c2)c1,13%,-3.1,-4.4,0.1%,3%,-1.5%,4%
COc1ccc(NS(=O)(=O)c2cc(NC(=O)CCNC(C)=O)ccc2N2CCOCC2)cc1,-10%[15.4 µM],-1.0,nt,0.8%,2%,nt,nt
O=S(=O)(Nc1cc(F)ccc1F)c1cccc2nonc12,14%,-6.0,-0.5,-0.6%,?,2.5%,7%
CCOc1ccccc1NC(=O)COC(=O)C(Cc1ccccc1)NC(=O)c1ccco1 (stereo not drawn),1%,1.0,nt,1.4%,-29%,1.7%,nt

# Ordered by length of the SMILES (lowest first): part of the list above.
SMILES,gsp ag,D2 agonist,Menin-MLL FL inh,PINK1 expr mod,gsp antagonist,ClpP mod,Sfp PPTase inh
Cc1cccc(NCc2ccccc2O)n1,-5%,-3.7,0.3,-0.7%,2%,?,-5%
Cc1nccn1CCc1n[nH]c(=S)n1Cc1ccccc1,12%,1.9,-0.6,-5.0%,-2%,-2.1%,3%
CN(C(=O)CSc1nnc(-c2ccc(F)cc2)n1C)C1CCS(=O)(=O)C1 (stereo not drawn),?,-0.5,nt,2.3%,16%,0.6%,nt

# Following part:
SMILES,gsp ag,D2 agonist,Menin-MLL FL inh,PINK1 expr mod,gsp antagonist,ClpP mod,Sfp PPTase inh
O=C(Nc1ccc(F)cc1F)Nc1ccc(F)cc1F,-14%[15.4 µM],-0.1,2.5,5.0%,8%,nt,18%
CC(NC(=O)/C=C/c1ccc(Br)cc1)c1ccc(Cl)cc1 (stereo not drawn),?,-1.3,5.1,10%,0%,nt,19%
Nc1ncccc1OCc1cccc(C(F)(F)F)c1,-15%[15.4 µM],4.9,2.9,0.0%,12%,nt,-13%
O=[N+]([O-])c1nn(-c2ccc3c(c2)OCCO3)n(O)c1=NC1CCCCCC1,-3%,?,0.4,3.8%[38.3 µM],-12%,0.3%,-18%
CCN(CC)CCNC(=O)C(C(=O)c1ccccc1)n1ccccc1=O (stereo not drawn),-5%,-2.1,0.3,-0.2%,3%,-3.2%,1%
CCC1(c2ccccc2)NC(=O)N(CC(=O)NNC(=O)CCN2CCN(c3ccccc3)CC2)C1=O (stereo not drawn),-40%[inhibitor],12,nt,1.0%,10%,4.4%,nt
O=C(N/N=C/c1ccco1)c1csc2c1CCCC2,-22%[15.4 µM],-3.5,1.3,0.4%,8%,nt,?
C=CCc1cccc2cc(C(=O)N3CCN(c4ccccn4)CC3)c(=O)oc12,25%,-3.0,6.0,-1.0%,-3%,nt,-6%
NC(=O)c1ccc(NC(=O)CCc2nc3ccccc3s2)cc1,?,0.1,5.0,4.8%,5%,-1.8%,-19%
COc1ccc(S(=O)(=O)n2cnc3ccccc32)cc1OC,-4%,4.0,1.0,0.3%,8%,-0.3%,7%
N#C/C(C(=O)NCc1ccco1)=C1/SC(Cc2ccc(F)cc2)C(=O)N1c1ccccc1 (stereo not drawn),-33%[inhibitor],0.7,10,-2.7%,-7%,-1.7%,?
COc1ccccc1CCNC(=O)C(=O)NCC1OCCN1S(=O)(=O)c1ccc(Cl)cc1 (stereo not drawn),?,-3.5,2.5,-0.6%,-2%,-0.9%,9%
Cc1nc(N)c(C#N)c(-c2ccccc2Cl)c1C,18%,0.5,-0.8,-0.7%,-8%,?,5%
O=C(C1CCN(Cc2ccc(F)cc2)CC1)N1CCN(C/C=C/c2ccccc2)CC1,2%,-2.4,-0.7,-1.4%,7%,nt,-20%
COc1ncc2nc(-c3ccc(Cl)cc3)c(=O)n(C)c2n1,nt,nt,?,9.5%,nt,nt,-3%
CN1C(=O)N(c2cccc3ccccc23)C(n2cncn2)C1(C)C (stereo not drawn),-11%,-0.3,0.1,-0.7%,14%,-3.4%,0%
Cc1ccc2c(c1)nnn2C1CCN(CC(=O)N2CCN(c3ccc(F)cc3)CC2)CC1,-20%,2.5,0.3,-0.1%,?,-6.0%,-1%
COc1ccc2cc(C(=O)C3CCCN(C(=O)c4csnn4)C3)ccc2c1 (stereo not drawn),?,5.5,-7.2,3.0%,-9%,nt,-2%
O=C(NCc1ccccn1)Nc1ccc(Cl)cc1,3%,-0.7,nt,-0.5%,-2%,nt,nt
CC(C)c1ccc(N2CCN(C(=O)c3ccccc3NC(=O)/C=C\C(=O)O)CC2)cc1,23%,1.1,6.3,-3.0%,3%,-2.5%,79µM*
c1ccc(CSc2ccc3nnc(-c4ccccn4)n3n2)cc1,13%[15.4 µM],-1.2,-1.3,-0.7%,-6%,0.7%,8%
N#C/C(=C\c1cc(Br)ccc1F)C(=O)NC1CC1,3%,1.2,nt,6.1%,1%,1.1%,-4%
O=C(CN(CC1CCCO1)C(=O)CNS(=O)(=O)c1ccccc1)NCc1ccco1 (stereo not drawn),0%[15.4 µM],3.8,-2.3,0.7%,nt,nt,-4%
CNC(=S)N(CCc1c(C)[nH]c2ccccc12)Cc1cc(OC)c(OC)c(OC)c1,-5%,-5.4,2.4,1.1%,-11%,-1.7%,-1%
COc1ccc2cc(CN(CC3CCCO3)C(=S)Nc3ccccc3)c(=O)[nH]c2c1 (stereo not drawn),-15%[15.4 µM],-2.2,7.7,4.5%,-10%,0.8%,-12%
CC(=O)Nc1cccc(OCC(=O)Nc2sccc2C(N)=O)c1,-9%,1.2,4.9,-0.4%,-9%,-4.3%,3%
CC1CN(C(=O)CSc2nnc(NC(=O)NC(C)(C)C)s2)CC(C)O1 (stereo not drawn),26%[15.4 µM],2.6,nt,-0.2%,13%,-4.2%,nt
Cc1cc(NC(=O)c2noc3c2CCc2ccccc2-3)no1,?,0.8,-2.5,3.2%,6%,-4.7%,20%
Cc1ccc(C)c(N(C)C(=O)c2cc3c(=O)[nH]c4ccc(C)cc4c3s2)c1,-28%,-4.7,-1.0,3.9%,-5%,-12%,-5%
CC(NC(=O)COC(=O)c1cccs1)c1ccccc1 (stereo not drawn),-8%[15.4 µM],-2.2,4.5,-0.2%,3%,nt,10%
Cc1cc(C(=O)NCC(C)C)c2ccccc2n1,15%,0.8,?,2.0%,18%,-6.4%,21%
CCOC(=O)N1CCN(S(=O)(=O)c2ccc(C(=O)NNc3nc4cc(C)cc(C)c4s3)cc2)CC1,-21%,-0.1,4.5,5.2%,-11%,-0.5%,-1%
C=C(C)CC(Nc1ccc(OC)cc1)c1ccco1 (stereo not drawn),11%[15.4 µM],-3.0,0.6,-0.9%,-1%,nt,14%
Cc1ccc(NC(=O)C(=O)NCCCN2CC(C(=O)O)CC2=O)cc1 (stereo not drawn),20%,8.4,-8.9,4.0%,11%,nt,0%
CC(C)c1ccc(NC(=O)Cn2ncc3ccccc32)cc1,19%,-1.3,-5.9,-0.5%,9%,-1.8%,13%
COc1cccc(NC(=O)c2ccc(NCCCN3CC(C)CC(C)C3)c([N+](=O)[O-])c2)c1 (stereo not drawn),16%[15.4 µM],-0.6,-3.0,6.7%,11%,nt,-3%
CC12CCC(C(=O)NCc3ccc4c(c3)OCO4)(OC1=O)C2(C)C (stereo not drawn),5%,0.7,-0.8,-0.1%,-8%[15.4 µM],-3.3%,15%
